Ecoli rRNA inh = reduced GFP signal of wild-type E. coli, primary screen, bacterial rRNA inhibitor project, GFP/RFP fluorescence, OD600, single point. GFP signal change (wild-type ribosome), % (no concentration beside the values). E. coli WT GFP vs humanized-ribosome RFP mutants, 24 h; stronger effect = lower value; DMSO median 0, no signal -100. hit rate 1.6% among 350,000;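 active = significant combined selectivity score with lowered wild-type GFP, culture density cut under 30%, mutant RFP and density less affected; inactive = any of these conditions unmet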; note: one replicate is shown; some compounds called inactive have numbers as strong as hits
Ecoli rRNA inh OD600 = also measured in Ecoli rRNA inh; calls as there; OD600 change, %; measured here: OD600 growth;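 optical density of the mix in the first replicate; 0 = DMSO median and -100 = no signal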
Ecoli rRNA inh RFP = second read-out of Ecoli rRNA inh, no call of its own (marks repeat the call); RFP signal change, %; measured here: RFP humanized mutant strains;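 first replicate; 0 = DMSO median and -100 = no signal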
Starred values were filed as active, the others as inactive; & = joins results of further samples. This is a subset, so the mix of outcomes need not match the whole.

SMILES | Ecoli rRNA inh | Ecoli rRNA inh OD600 | Ecoli rRNA inh RFP
C[C@H](CO)N1C[C@H](C)[C@@H](CN(C)S(C)(=O)=O)Oc2ncc(-c3cccc(F)c3)cc2C1=O | 2 | -2 | -0.4
O=C(C[C@H]1C=C[C@H](NC(=O)CC2CC2)[C@@H](CO)O1)NCc1ccc(Cl)cc1 | -1 | -3 | -3.8
Cc1ccc2nc(CN(C)C(=O)[C@@H](Cc3ccccc3)NC(=O)[C@H]3O[C@@H](n4ccc(=O)[nH]c4=O)[C@H](O)[C@@H]3O)[nH]c2c1 | 21 | 11 | 3.8
CC(C)Cn1cc(-c2cncc3nccn23)cn1 | 2 | 17 | -5.2
O=C(C[C@@H]1C[C@H]2c3cc(NC(=O)C4CCC4)ccc3O[C@H]2[C@H](CO)O1)NCc1cccc(F)c1 | 0 | 1 | 0.7
CCCC#Cc1ccc([C@@H]2[C@@H](CO)N3C(=O)CN(C(=O)NC4CCCC4)C[C@H]23)cc1 | -4 | -12 | 6.3
NC(=O)C1CCN(CC(=O)Nc2ccc3c(c2)OCO3)CC1 | 5 | 20 | 1.1
COc1ccccc1CN1CC[C@@H]2[C@@H](CO)Nc3ccc(C#Cc4ccccc4)cc3[C@@H]21 | -58 | -75 | -19
Cc1noc(C)c1S(=O)(=O)Nc1ccc2c(c1)C(=O)N([C@H](C)CO)C[C@@H](C)[C@@H](CN(C)C(=O)Nc1ccc(C(F)(F)F)cc1)OCCCC[C@@H](C)O2 | 3 | -4 | -3.9
COc1ccc(NC(=O)Nc2ccc3c(c2)CC(=O)N([C@H](C)CO)C[C@@H](C)[C@@H](CN(C)Cc2ccc(-c4ccccc4)cc2)O3)cc1 | 3 | 1 | 0.8
C[C@H]1CCCCO[C@H](CN(C)C(=O)Nc2ccc(F)cc2)[C@@H](C)CN([C@@H](C)CO)C(=O)c2cc(NC(=O)c3ccccc3)ccc2O1 | -4 | -13 | 0.2
Cc1ccc(C(c2nc3ccccc3[nH]2)n2c(-c3ccccc3)nc3ccccc32)cc1 (stereo unspecified) | 0 | -37 | -6.1
COc1ccc(S(=O)(=O)N2CCC(C(=O)N[C@H](C(=O)NCc3ccccc3)C(C)C)CC2)cc1 | 5 | 12 | -1.9
COc1ccc(NC(=O)Nc2ccc3c(c2)CC(=O)N([C@@H](C)CO)C[C@@H](C)[C@@H](CN(C)C(=O)Nc2ccc(OC)cc2)O3)cc1 | -2 | -4 | 1.4
COCCn1c(=S)[nH]c2cc(C(=O)NC3CCCC(C)C3C)ccc2c1=O (stereo unspecified) | 0 | 1 | 2.8

Arranged by SMILES length (descending): 6 of the compounds above
SMILES | Ecoli rRNA inh | Ecoli rRNA inh OD600 | Ecoli rRNA inh RFP
Cc1noc(C)c1S(=O)(=O)Nc1ccc2c(c1)C(=O)N([C@H](C)CO)C[C@@H](C)[C@@H](CN(C)C(=O)Nc1ccc(C(F)(F)F)cc1)OCCCC[C@@H](C)O2 | 3 | -4 | -3.9
CCCC#Cc1ccc([C@@H]2[C@@H](CO)N3C(=O)CN(C(=O)NC4CCCC4)C[C@H]23)cc1 | -4 | -12 | 6.3
COc1ccccc1CN1CC[C@@H]2[C@@H](CO)Nc3ccc(C#Cc4ccccc4)cc3[C@@H]21 | -58 | -75 | -19
Cc1ccc(C(c2nc3ccccc3[nH]2)n2c(-c3ccccc3)nc3ccccc32)cc1 (stereo unspecified) | 0 | -37 | -6.1
COCCn1c(=S)[nH]c2cc(C(=O)NC3CCCC(C)C3C)ccc2c1=O (stereo unspecified) | 0 | 1 | 2.8
CC(C)Cn1cc(-c2cncc3nccn23)cn1 | 2 | 17 | -5.2

Structural class, those above with an NH in an aromatic ring.
SMILES | Ecoli rRNA inh | Ecoli rRNA inh OD600 | Ecoli rRNA inh RFP
Cc1ccc2nc(CN(C)C(=O)[C@@H](Cc3ccccc3)NC(=O)[C@H]3O[C@@H](n4ccc(=O)[nH]c4=O)[C@H](O)[C@@H]3O)[nH]c2c1 | 21 | 11 | 3.8
Cc1ccc(C(c2nc3ccccc3[nH]2)n2c(-c3ccccc3)nc3ccccc32)cc1 (stereo unspecified) | 0 | -37 | -6.1
COCCn1c(=S)[nH]c2cc(C(=O)NC3CCCC(C)C3C)ccc2c1=O (stereo unspecified) | 0 | 1 | 2.8

Next part
SMILES | Ecoli rRNA inh | Ecoli rRNA inh OD600 | Ecoli rRNA inh RFP
O=C(C[C@@H]1CC[C@H]2[C@@H](COC[C@@H](O)CN2S(=O)(=O)c2ccc(Cl)cc2)O1)NCCN1CCCCC1 | 2 | -4 | -3.4
O=C(C[C@H]1C=C[C@H](NC(=O)Nc2cc(F)ccc2F)[C@@H](CO)O1)Nc1ccc(-c2ccccc2)cc1 | -5 | 0 | 4.3
CCCc1nc2c3ccccc3ccn2c1Cc1ccccc1OC | -43 | -76 | -13
COc1ccc(S(=O)(=O)Nc2ccc3c(c2)C(=O)N([C@H](C)CO)C[C@H](C)[C@H](CN(C)S(=O)(=O)c2cccs2)OCCCC[C@H](C)O3)cc1 | -3 | 4 | -3.4
COc1cccc(CN2CC3(CN(C(C)=O)C3)c3c(n(C)c4cc(OC)ccc34)[C@@H]2CO)c1 | -1 | -1 | -1.3
CCS(=O)(=O)N1CC2(C1)[C@@H](c1ccccc1)[C@H](CO)N2Cc1ccc(F)cc1 | -5 | -1 | -0.1
Cc1noc(C)c1NC(=O)N(C)C[C@@H]1Oc2ccc(NS(=O)(=O)c3ccc(Cl)cc3)cc2CC(=O)N([C@@H](C)CO)C[C@@H]1C | 1 | 1 | -3.0
CO[C@H]1CN(C)C(=O)c2cc(NC(=O)C3CC3)ccc2OC[C@@H](C)N(C(=O)CN(C)C)C[C@H]1C | 0 | -2 | -1.4
C[C@@H]1CN([C@@H](C)CO)C(=O)c2cc(NC(=O)NC3CCCCC3)ccc2O[C@@H](C)CCCCO[C@H]1CN(C)C(=O)CCC(F)(F)F | -1 | -6 | -0.7
C[C@@H]1CN([C@H](C)CO)C(=O)c2c(c3ccccc3n2C)-c2ccccc2CO[C@@H]1CN(C)S(=O)(=O)c1ccc(F)cc1 | 1 | 5 | -1.5
C[C@@H]1CN([C@@H](C)CO)C(=O)c2cc(NC(=O)Cc3ccccc3)ccc2O[C@@H](C)CCCCO[C@H]1CN(C)C(=O)CCC(F)(F)F | 1 | -3 | 0.8
C[C@H](CO)N1C[C@H](C)[C@@H](CN(C)Cc2ccc(C(F)(F)F)cc2)Oc2ccc(NS(=O)(=O)c3ccccc3)cc2CC1=O | -1 | -16 | 11
C[C@H]1CN([C@@H](C)CO)C(=O)Cc2cc(NC(=O)Nc3ccc(C(F)(F)F)cc3)ccc2O[C@@H]1CN(C)Cc1ccncc1 | -2 | -29 | 7.2
CN(C)CC(=O)N1C[C@@H]2N[C@H](C1)C2c1ccc(-c2ccccc2F)cc1 (stereo partly specified) | -3&-1 | -3&-2 | 0.8&-3.2
O=C(C[C@H]1C[C@H]2c3cc(NC(=O)c4cccnc4)ccc3O[C@H]2[C@@H](CO)O1)NCc1ccncc1 | 2 | 8 | 0.4
C[C@H](O)C#Cc1ccc([C@@H]2[C@@H](CO)N3CCCCN(C(=O)c4ccc(F)cc4)C[C@@H]23)cc1 | -2 | -1 | -0.1
Cc1noc(C)c1NC(=O)Nc1ccc2c(c1)C(=O)N([C@H](C)CO)C[C@H](C)[C@@H](CN(C)S(=O)(=O)c1ccc(F)cc1)OCCCC[C@H](C)O2 | -1 | 2 | -2.2
C[C@H]1CN([C@@H](C)CO)C(=O)c2cc(NC(=O)Cn3cnnn3)ccc2O[C@@H]1CN(C)Cc1ccc(C(=O)Nc2ccccc2N)cc1 | 1 | 7 | -1.3
COc1cccc(CN2[C@H](CO)[C@H]3c4ccccc4N(C(=O)CC(F)(F)F)C[C@H]32)c1 | -8 | -15 | 2.4
CCC(=O)N1CCC1(C)C(=O)Nc1cccc2c1CCCC2 (stereo unspecified) | 6 | 12 | 2.2
COc1cccc(C(=O)Nc2ccc3c(c2)C(=O)N(C)[C@@H]2CC[C@H](CC(=O)NCc4ccccc4F)O[C@@H]2CO3)c1 | -7 | -15 | 0.9
CCCN(C)C[C@@H]1OCCCC[C@@H](C)Oc2ccc(NS(=O)(=O)c3ccc(C)cc3)cc2C(=O)N([C@H](C)CO)C[C@@H]1C | 2 | 4 | -0.7
Cn1cnc(S(=O)(=O)N2CCCCN3[C@H](CO)[C@@H](c4ccc(C#CC5CCCC5)cc4)[C@@H]3C2)c1 | -58 | -74 | -17
Cc1cccc(-c2ccc([C@@H]3[C@H]4CN(C(=O)c5ccc6c(c5)OCO6)CCCCN4[C@H]3CO)cc2)c1 | 6 | -33 | 6.9
COc1cc(/C=C/CNC[C@H]2O[C@@H](n3ccc(N)nc3=O)[C@H](O)[C@@H]2O)ccc1O | 3 | 13 | -0.6
C[C@H]1CCCCO[C@H](CN(C)C)[C@@H](C)CN([C@@H](C)CO)C(=O)c2cc(NC(=O)CCCN(C)C)ccc2O1 | 5 | 4 | -1.0
Cc1noc(C)c1S(=O)(=O)Nc1ccc2c(c1)C(=O)N([C@H](C)CO)C[C@@H](C)[C@@H](CN(C)C(=O)NC1CCCCC1)OCCCC[C@@H](C)O2 | 1 | -3 | 3.1
CNC[C@H]1Oc2ncc(C3=CCCC3)cc2C(=O)N([C@@H](C)CO)C[C@H]1C | 2 | -1 | -1.6
C[C@@H]1CN([C@@H](C)CO)C(=O)c2cccc(NC(=O)Nc3ccc4c(c3)OCO4)c2O[C@H]1CN(C)S(=O)(=O)c1ccc(F)cc1 | -5 | -10 | 0.5
C[C@@H]1CN([C@@H](C)CO)C(=O)c2cc(NC(=O)Nc3ccc4c(c3)OCO4)ccc2O[C@@H](C)CCCCO[C@H]1CN(C)C(=O)Nc1ccccc1 | 4 | 13 | 2.5
COC(=O)[C@@H]1[C@@H](CO)[C@@H]2Cn3c(ccc(-c4cncnc4)c3=O)[C@@H]2N1CCC(F)(F)F | -1 | -3 | -0.7
C[C@H]1CCCCO[C@@H](CN(C)C(=O)Nc2ccc(F)cc2)[C@@H](C)CN([C@@H](C)CO)C(=O)c2cc(NS(C)(=O)=O)ccc2O1 | 2 | 0 | -3.1
C[C@H]1CN([C@@H](C)CO)C(=O)c2cc(-c3cccnc3)cnc2O[C@@H]1CN(C)C | 4 | 6 | -0.5
C[C@@H]1CN([C@@H](C)CO)C(=O)c2cc(C#Cc3ccc(F)cc3)cnc2O[C@@H]1CN(C)C(=O)c1ccccc1F | -2 | -25 | 21
COc1ccc2c3c(n(C)c2c1)[C@@H](CO)NCC31CN(C(=O)Nc2ccccc2F)C1 | 2 | 6 | -0.7
CN1[C@H](C(=O)Nc2ccccc2)[C@@H](CO)[C@@H]2Cn3c(ccc(-c4ccc(F)cc4)c3=O)[C@@H]21 | 1 | 5 | -2.7
O=C(CCN1CCCCC1)NCC[C@H]1CC[C@H](NS(=O)(=O)c2cccc(Cl)c2)[C@@H](CO)O1 | 1 | -3 | 1.8
O=C1Nc2ccccc2SC1=Cc1ccccc1 | -1 | -7 | -3.0
O=C(C[C@H]1CC[C@H]2[C@@H](COC[C@@H](O)CN2C(=O)c2cnccn2)O1)NCc1ccccc1 | 4 | 7 | -2.7
Cc1noc(C)c1S(=O)(=O)Nc1ccc2c(c1)C(=O)N([C@@H](C)CO)C[C@@H](C)[C@H](CN(C)S(=O)(=O)c1ccc(Cl)cc1)OCCCC[C@@H](C)O2 | 3 | 4 | 0.9
Cc1ccc(S(=O)(=O)N(C)C[C@@H]2OCCCC[C@@H](C)Oc3ccc(NS(=O)(=O)c4cccs4)cc3C(=O)N([C@H](C)CO)C[C@H]2C)cc1 | -1 | -4 | 3.0
C[C@@H]1CN([C@H](C)CO)C(=O)Cc2cc(NS(=O)(=O)c3ccc(F)cc3)ccc2O[C@@H]1CN(C)Cc1ccc(Cl)c(Cl)c1 | 0 | -7 | 1.3
CC(C)NC(=O)N[C@H]1CC[C@H](CC(=O)N2CCCCC2)O[C@@H]1CO | -2 | 4 | -1.3
C[C@@H]1CN([C@@H](C)CO)C(=O)Cc2cc(NC(=O)Cc3cn(C)c4ccccc34)ccc2O[C@@H]1CN(C)S(=O)(=O)c1ccc(Cl)cc1 | 2 | 10 | -0.1
O=C1Nc2cc(C(=O)NCCCN3CCCC3)ccc2S/C1=C/c1cccc(Cl)c1 | -50 | -76 | -13
C[C@H](CO)N1C[C@H](C)[C@H](CN(C)Cc2ccccc2)Oc2ncc(C3=CCCC3)cc2C1=O | 3 | 3 | -0.8
CO[C@H]1CN(C)C(=O)c2ccc(NS(=O)(=O)c3ccccc3)cc2OC[C@@H](C)N(Cc2ccccn2)C[C@H]1C | 0 | -3 | -1.7
CC(C)c1cn(CC[C@@H]2CC[C@@H](NC(=O)C3CCCC3)[C@H](CO)O2)nn1 | 5 | 4 | 0.2
COCc1cc(N2CCNC[C@@H]2C)ccc1N1CCS(=O)(=O)CC1 | 22 | 6 | 4.9
CNC[C@@H]1Oc2c(cccc2N(C)C)C(=O)N(C)C[C@@H]1C | 0 | 5 | -0.6
CCCNC(=O)N1[C@H](CO)[C@H](c2ccccc2)[C@@H]1CNC(=O)C1CCC1 | 3 | 5 | -0.1
Cc1ccc(S(=O)(=O)N(C)C[C@@H]2OCCCC[C@H](C)Oc3ccc(NC(=O)Nc4c(C)noc4C)cc3C(=O)N([C@H](C)CO)C[C@H]2C)cc1 | 0 | 1 | 0.0

Assay outcomes from PubChem BioAssay.
